EPAC2 ant val – human EPAC2 antagonism, validation. 16,000 tested, 1.7% active. EPAC2 Rap1B BODIPY-GDP exchange, fluorescence. Potency, µM (top dose mostly 112 µM), for inactives: at the highest dose activity, negative = inhibition, actives largely listed as inhibitors. Q8WZA2; active means well fitted inhibition curve with a large enough effect; inconclusive means small, poorly fitted or top-dose-only effect; inactive means no such curve, though single readings can be large or run the other way;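 further: 100% = activation by cAMP agonist control; nearly all actives have a fitted effect of over 40% in size; the record reuses the description of the EPAC1 agonist screen; inactives centre near -10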
Target sequence (Q8WZA2 whole entry, looked up): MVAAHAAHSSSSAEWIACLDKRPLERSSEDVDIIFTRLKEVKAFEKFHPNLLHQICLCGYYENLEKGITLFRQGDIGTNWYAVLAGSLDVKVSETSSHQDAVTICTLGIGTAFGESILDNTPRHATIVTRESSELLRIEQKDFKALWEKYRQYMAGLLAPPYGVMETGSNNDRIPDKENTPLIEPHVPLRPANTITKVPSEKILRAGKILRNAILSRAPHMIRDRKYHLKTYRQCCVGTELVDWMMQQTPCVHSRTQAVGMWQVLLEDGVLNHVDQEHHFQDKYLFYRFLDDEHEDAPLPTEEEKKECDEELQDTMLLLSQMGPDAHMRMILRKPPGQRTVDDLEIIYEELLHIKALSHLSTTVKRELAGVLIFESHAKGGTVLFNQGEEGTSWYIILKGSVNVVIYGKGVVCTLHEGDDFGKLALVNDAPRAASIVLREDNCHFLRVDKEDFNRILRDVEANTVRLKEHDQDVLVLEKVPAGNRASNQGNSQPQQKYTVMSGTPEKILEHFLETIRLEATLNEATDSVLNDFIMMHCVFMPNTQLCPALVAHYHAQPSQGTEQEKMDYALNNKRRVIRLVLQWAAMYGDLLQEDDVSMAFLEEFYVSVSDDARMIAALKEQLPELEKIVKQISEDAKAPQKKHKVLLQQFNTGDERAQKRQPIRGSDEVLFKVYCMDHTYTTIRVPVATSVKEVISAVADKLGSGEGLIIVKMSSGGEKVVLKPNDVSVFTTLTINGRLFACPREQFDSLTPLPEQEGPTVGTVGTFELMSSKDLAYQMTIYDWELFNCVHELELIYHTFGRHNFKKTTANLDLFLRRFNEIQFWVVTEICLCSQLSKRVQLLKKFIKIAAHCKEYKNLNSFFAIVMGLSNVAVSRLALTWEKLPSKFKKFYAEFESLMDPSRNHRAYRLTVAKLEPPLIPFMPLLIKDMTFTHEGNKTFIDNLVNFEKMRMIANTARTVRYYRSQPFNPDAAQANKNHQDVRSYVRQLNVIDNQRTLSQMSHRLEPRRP
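Fluorescent exchange read-out: 100 nM EPAC2 with 250 nM RAP1B–BODIPY-GDP and 50 uM GDP; BODIPY-GDP release lowers fluorescence. Read at 480/540 nm every 5 min for 30 min at room temperature; normalized to 6.5 mM cAMP.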
* = called active by the depositor; ? = inconclusive; & = joins results of further samples; ! = a repeat was not active; [ ] = remark or other dose. Potency means the concentration at half of the fitted maximal effect. A portion of the library; the hit share may differ from the screen's.

| structure | EPAC2 ant val |
| --- | --- |
| CC(=O)OC[C@@]1(O)C[C@@]23CC[C@@H]4c5ccoc5CC[C@@]4(C)[C@@H]2CCC1C3 | -13% |
| COc1ccc2c(=O)c3ccccc3oc2c1 | ? |
| CC1CCN(CCCC(=O)c2ccc(F)cc2)CC1 | -6% |
| Cn1cc(-c2nc3cnc(N4CCNCC4)nc3n(CCc3ccccc3)c2=O)c2ccccc21 | 34%[activator] |
| NC(=O)c1ncn([C@@H]2O[C@H](CO)[C@@H](O)[C@H]2O)n1 | 4%&-12% |
| CC(C)NC(=O)N1CC[C@@]2(CCCN(C(=O)c3cccc(F)c3)C2)C1 | -23% |
| CCOC(=O)c1c[nH]c2cc(OCC(C)C)c(OCC(C)C)cc2c1=O | 10% |
| CCCS(=O)(=O)NCc1c(C)ncc2c1CCN(C(=O)c1cccc(-c3ccccc3F)c1)C2 | ? |
| O=C1C(c2ccccn2)=[N+]([O-])c2ccccc21 | -5% |
| Cc1cnc(-n2ncc(C(=O)NCC(C)(C)N3CCOCC3)c2C)nc1-c1cccs1 | 2% |
| COc1cc2c(cc1OC)C(c1ccc(N)cc1)=NNC(=O)C2 | -9%&-22% |
| CCCCCCCCCCCCCC(=O)O[C@H](CC(=O)O)C[N+](C)(C)C | ? |
| Cc1noc(C)c1C(=O)N1CCC2(CCCN(c3ncccn3)C2)CC1 | -24% |
| Cc1cccc(CNc2nc(-c3c(C)noc3C)nc3ccccc23)c1 | -11% |
| Cc1cc(C)cc(C(=O)NCc2nc(-c3cccc(NC(=O)c4ccccn4)c3)oc2C)c1 | -1% |
| Nc1ncnc2c1nc(Cl)n2C1OC(CO)C(O)C1O (stereo unspecified) | -4% |
| COc1cc(C(=O)OCCCN2CCCN(CCCOC(=O)c3cc(OC)c(OC)c(OC)c3)CC2)cc(OC)c1OC | -11%&10%&-19% |
| O=C(O)CC[C@@H](C(=O)O)N1C(=O)c2ccccc2C1=O | -7% |
| COc1ccc(SC[C@H](Cc2ccccc2)N2CC[C@@H](C(C)(C)C)CCC2=O)cc1 | 0% |
| COc1cccc(-c2ccc3ncnc(NCCNC(C)=O)c3c2)c1 | -16% |
| CC(C)(O)c1ccccc1CC[C@@H](SCC1(CC(=O)O)CC1)c1cccc(/C=C/c2ccc3ccc(Cl)cc3n2)c1 | ? |
| NCCCS(=O)(=O)O | -9%&-10% |
| CN(C)c1nc(N)c(C(=O)N=C(N)N)nc1Cl | -18% |
| O=C(c1csnn1)N1CCC[C@@]2(CCN(Cc3ccccc3)C2)C1 | -11% |
| Cc1cccc(CNc2cc(-c3c(C)noc3C)ncn2)c1 | ? |
| O=S1(=O)CCOC[C@H](CC2CCCCC2)N1Cc1cccc(F)c1 | ? |
| FC(F)(F)c1cc(CN2CCCC3(CCNCC3)C2)cc(C(F)(F)F)c1 | -23% |
| CC(=O)[C@H]1CCC2C3CC=C4C[C@@H](OS(=O)(=O)O)CC[C@]4(C)C3CC[C@@]21C (stereo partly specified) | ? |
| CNC(=O)Oc1ccc2c(c1)C1(C)CCN(C)C1N2C (stereo unspecified) | -5% |
| COc1ccc(-c2nc3cnc(N4CCN(C)CC4)nc3n(Cc3ccc(F)cc3)c2=O)cc1 | -6% |
| COCCC1CCCCN1Cc1nc(N2CCCC2)c2cc(OC)c(OC)cc2n1 (stereo unspecified) | -27% |
| O=C(O)CCc1cccnc1 | 3% |
| COCCn1c(=O)c(-c2ccc(F)cc2)nc2cnc(Nc3cccc(OC)c3)nc21 | -10% |
| Cc1cn2c(=O)c3ccccc3nc2n2c(=O)c3ccccc3nc12 | 8% |
| COc1ccccc1N1CCN(CCn2c(=O)c3c(c4ccccc4n3C)n(C)c2=O)CC1 | ? |
| COCCn1c(=O)c(-c2ccc(Cl)cc2)nc2cnc(N3CCNCC3)nc21 | -7% |
| CN1CCN(c2ncc3nc(-c4cccs4)c(=O)n(Cc4ccc(F)cc4)c3n2)CC1 | 2% |
| O=C1C(=O)N(Cc2ccc(Cl)c(Cl)c2)c2ccccc21 | ? |
| CN(C)c1ncnc2ccc(-c3cccc(C#N)c3)cc12 | -10% |
| CN(C)Cc1ccccc1-c1cncnc1NCc1cccs1 | -7% |
| CCC(O)CNC(=O)c1cnn(-c2ncc3c(n2)-c2ccccc2CCC3)c1C1CC1 (stereo unspecified) | -9% |
| Nn1cc(Br)c(=O)[nH]c1=O | -7% |
| COc1ccccc1-c1ccc(C(=O)NCCN2CCOCC2)c(N2CCN(c3ccccc3F)CC2)n1 | 1% |
| COc1ccc(C(=O)N2CCC[C@@]3(CCN(Cc4cc(C(F)(F)F)cc(C(F)(F)F)c4)C3)C2)cc1 | 14µM* |
| CC(C)=CCC1=C(O)c2ccccc2C(=O)C1=O | -22%&-28% |
| CC(N)C(O)c1cccc(O)c1 (stereo unspecified) | -17% |
| CC(=O)N1CCC[C@@]2(CCN(C(=O)Nc3cccc(C#N)c3)C2)C1 | -9% |
| c1ccc2nc(C3=NCCN3)ccc2c1 | -20%&-27% |
| COc1nccnc1NS(=O)(=O)c1ccc(N)cc1 | -37% |
| Cc1ccccc1/C=C/C1=NCCN1 | 21% |
| O=c1c(-c2ccc(Cl)cc2)nc2cnc(Nc3ccccc3)nc2n1C1CC1 | -7% |
| COC(=O)[C@@H]1CCCN1C(=O)c1c(OC)cc(=O)n2c1CCN(Cc1ccc3c(c1)CCO3)CC2 | ? |
| COc1ccc(CN2CC[C@H]3C=CC[C@@H](C(=O)Nc4nccs4)[C@H]3C2=O)cc1OC | -10% |
| Cc1cnc(C)c(-c2cc(F)c3c(c2)CC(CNC(=O)c2cccc(Cn4cccn4)c2)O3)n1 (stereo unspecified) | ? |
| COc1cc(=O)n2c(c1C(=O)NCc1ccc3c(c1)OCO3)CCN(C(=O)c1ccccc1F)CC2 | -1% |
| COc1cccc(CNC(=O)c2c(OC)cc(=O)n3c2CCN(C(=O)C2CC24CCCC4)CC3)c1 (stereo unspecified) | -12% |
| COc1ccc(NC(=O)N2CCCC3(CCN(C(=O)c4ccc(OC)cc4)CC3)C2)cc1 | -35% |
| COCC(=O)N1CCC2(CCN(Cc3ccc(C#N)cc3)CC2)CC1 | -5% |
| CCCCCCCCCCCCN1C/C(=C\C(=O)OCC)c2cc(C(F)(F)F)ccc2S1(=O)=O | ? |
| C[C@@H]1CC[C@@]2(OC1)OC1CC3C4CC=C5CC(O)CCC5(C)C4CCC3(C)C1[C@@H]2C (stereo partly specified) | -7% |

Following part.
| structure | EPAC2 ant val |
| --- | --- |
| NCC(=O)CCC(=O)O | 6% |
| CC(C)NC[C@@H](O)COc1ccc(COCCOC(C)C)cc1 | -16% |
| CN(C)c1cccc2ccccc12 | ? |
| Cc1ccccc1-c1nccc(NCCN2CCOCC2)n1 | -21% |
| C[C@H](CCC(=O)O)[C@H]1CC[C@@H]2[C@H]3CC[C@H]4C[C@H](O)CC[C@]4(C)[C@@H]3CC[C@@]21C | -26% |
| CC(N)=NCc1cccc(CN)c1 | 4%[239 µM] |
| C[C@H](N)C(=O)N[C@@H](C)P(=O)(O)O | -17% |
| CCS(=O)(=O)Nc1cc(C(=O)N[C@H]2CCCCNC2=O)c2c(c1)nc(-c1ccccc1)n2C | -2% |
| O=C(c1ccco1)N1CCC2(CC1)CN(C(c1ccccc1)c1ccccc1)C2 | ? |
| Cc1ccnc2c(Cl)ccc(Cl)c12 | 12% |
| COc1cc(-c2c(-c3cc(OC)c(OC)c(OC)c3)noc2C)ccc1F | ? |
| O=C(c1csnn1)N1CCC2(CC1)CN(c1ncccn1)C2 | -24% |
| O=C(O)CC(O)(CC(=O)O)C(=O)O | -2%&34% |
| COC(=O)C1CCCCN1Cc1nc(N2CCCN(C(C)=O)CC2)c2ccccc2n1 (stereo unspecified) | -1% |
| COc1ccc(C(=O)N2CCCC(c3nc(SCc4ccccn4)ncc3C)C2)cc1F (stereo unspecified) | ? |
| Cc1oc(-c2ccccc2NC(=O)c2ccsc2)nc1CN(C)Cc1ccc2c(c1)CCCN2C | -22% |
| NC(=NCCCCCCN=C(N)/N=C(\N)Nc1ccc(Cl)cc1)/N=C(\N)Nc1ccc(Cl)cc1 | 79µM*! |
| CNC(=O)OCc1cccc(COC(=O)NC)n1 | -1% |
| N#CC[C@H](Cc1ccccc1)N1CCN(CCc2ccccc2)CCC1=O | -17% |
| CC(C)(C)[C@H]1CCC(=O)N(CCSc2ccc(Br)cc2)CC1 | 3% |
| CCCCCc1ccc(-c2cn(CC3CCCCC3)nn2)cc1 | -9% |
| O=C1C=CC(=C(c2ccc(O)cc2)c2ccc(O)cc2)C=C1 | ? |
| NCCNS(=O)(=O)c1cccc2cnccc12 | -19%&-19% |
| CC(C)=CCC/C(C)=C/CC/C(C)=C/CCC(=O)OC/C=C(\C)CCC=C(C)C | -12% |
| CO/N=C(\C(=O)N[C@@H]1C(=O)N2C(C(=O)O)=C(CSc3nc(=O)c(O)nn3C)CSC12)c1csc(N)n1 (stereo partly specified) | 16% |
| COc1cc(-c2cc(C)c3cccc(OC)c3n2)cc2c1OCCN(C(=O)CCn1ccc(C)n1)C2 | -2% |
| Cc1ccccc1-c1ccc2ncnc(N(C)Cc3ccco3)c2c1 | 20µM* |
| Cc1cccc(CNc2cc(-c3ccccc3CN(C)C)ncn2)c1 | -5% |
| COc1ccc(-n2c(=O)cnc3cnc(Oc4cccc(Cl)c4)nc32)cc1 | ? |
| N#Cc1ccc(CN2CCCC3(CCNCC3)C2)cc1 | -12% |
| COc1ccc(CNc2ncncc2-c2ccccc2C(F)(F)F)c(OC)c1 | -44% |
| COc1cc2c(cc1OC)C(C(=O)c1ccc(OC)c(OC)c1O)=NCC2 | -15% |
| Cc1noc(C)c1-c1nccc(N2CCN(C)CC2)n1 | -23% |
| CC(=O)NCCNc1ncncc1-c1ccc(N(C)C)cc1 | -11% |
| OCC1O[C@H]([S-])[C@H](O)[C@@H](O)[C@@H]1O.[Au+] (stereo partly specified) | -26% |
| Nc1ccc(S(=O)(=O)Nc2ccccn2)cc1 | ? |
| CN(C)c1ncc2nc(-c3ccccc3)c(=O)n(C[C@H]3CCCO3)c2n1 | 2% |
| CN1CCN(c2ncc3nc(-c4ccc(Cl)cc4)c(=O)n(CCC#N)c3n2)CC1 | -25% |
| CCOC(=O)/C=C/c1ccc2c(c1)S(=O)(=O)N(C1CCCC1)[C@H]2CC(=O)OCC | -21% |
| OC1(c2ccc3c(c2)CN(Cc2ccco2)CCO3)CCN(c2ccccc2F)CC1 | -25% |
| COP(=O)(OC)OC(c1ccc(Cl)cc1)P(=O)(OC)OC (stereo unspecified) | 10% |
| CCCCCCCCCCCCCCCCOCC(CO)OC (stereo unspecified) | 2%[11.4 µM] |
| COCCn1c(=O)c(-c2cc(F)cc(F)c2)nc2cnc(Oc3ccccc3)nc21 | -20% |
| CCC1C(=O)NCCN1Cc1ccc2c(c1)CN(Cc1cccc(OC)c1OC)CCO2 (stereo unspecified) | -6% |
| CCCCCC/C=C\CCCCCCCc1cccc(O)c1C(=O)O | -15% |
| Cc1ncc2c(c1CNC(=O)c1ccc3c(c1)OCO3)CCN(C(=O)c1cc3ccccc3n1C)C2 | 3% |
| Cc1oc(-c2ccccc2NC(=O)C2CCC2)nc1CNC(=O)c1ccc(C#CC(C)(C)O)cc1 | ? |
| CCCN1CCCC[C@H]1C(=O)Nc1c(C)cccc1C | 6% |
| O=C(Nc1ccc(Cl)cc1Cl)[C@@H]1CC=C[C@@H]2CCN(C3CCCCC3)C(=O)[C@@H]21 | ? |
| COc1ccc(Oc2ncc3nc(-c4ccc(OC)cc4)c(=O)n(C)c3n2)cc1 | -29% |
| COc1ccc(NC(=O)[C@@H]2CC=C[C@@H]3CCN(Cc4ccc(Cl)c(Cl)c4)C(=O)[C@@H]32)cc1 | ? |
| C=C1C2=CC(=O)OC(c3ccoc3)[C@]2(C)CCC1[C@]1(C)C=CC(=O)C(C)(C)C1CC(=O)OC (stereo partly specified) | -25% |
| CC(=O)N1CCC[C@@]2(CCN(c3ccncc3)C2)C1 | -23% |
| COc1ccccc1CNc1nc(-c2ccoc2)nc2ccccc12 | -19% |
| CC1(C)CC23C(=O)CCC(O)C2(C)CCC13 (stereo unspecified) | -5% |
| COc1cc(-c2cnc3ccccc3c2)cc2c1OCCN(S(=O)(=O)C[C@]13CC[C@H](CC1=O)C3(C)C)C2 | -21% |
| CSc1nc(N)c2ncn([C@@H]3O[C@H](COP(=O)(O)OP(=O)(O)O)C(O)[C@H]3O)c2n1 (stereo partly specified) | 9% |
| N#Cc1cccc(NC(=O)N2CC[C@@]3(CCCNC3)C2)c1 | -17% |
| N#Cc1cccc(CN2CCC(=O)N([C@H](CO)Cc3ccccc3)CC2)c1 | ? |
| CN1CCN(c2ncc3nc(-c4cn(C)c5ccccc45)c(=O)n(CCC#N)c3n2)CC1 | 90%[activator] |

Screens deposited in PubChem by National Center for Advancing Translational Sciences (NCATS).
